Sa helicase inh = blocks Staphylococcus aureus DNA helicase; 120,000 compounds, 0.05% hits; purified S. aureus helicase, fluorescence unwinding assay; about half of the hits fall short of the stated cut; inhibition, %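 (tested at about 80 µM)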; AID 485395;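 active means both duplicates at 50% or more, or one of them with a favoured structure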;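 further: 0% = mean of negative control wells and 100% = mean of positive control wells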
MgrA DNA FP = modulators of Staphylococcus aureus MgrA DNA binding. 84,000 compounds, 0.13% hits. fluorescence polarization. AID 602314. inhibition, %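 (about 10 µg/mL by stock and volumes)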;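 active means above 50% in either of two replicates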;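 further: 0% = protein plus DNA without compound and 100% = DNA alone without protein; higher means less MgrA bound to DNA so lower polarization; one replicate is shown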
Numbers without * were called inactive; x = not tested or not shown; & = joins results of further samples. A portion of the library, so the mix of outcomes need not match the whole.

# | Molecule | MgrA DNA FP | Sa helicase inh
1 | O=C(C1CCCN(S(=O)(=O)Cc2ccccc2)C1)N1CCc2ccccc21 (configuration not stated) | 0.6 | 3.0
2 | COc1ccc(OC)c(CC(=O)Nc2c(N)nc(N)nc2N)c1 | x | -43.0
3 | CCN(CC)S(=O)(=O)c1ccc2[nH]c3c(c2c1)CCCC3 | -0.3 | 9.0
4 | O=C1NC(CCc2ccccc2)C(=O)N1CCOc1ccccc1 (configuration not stated) | x | -4.0
5 | CCCN1CNc2nc3ccccc3n2C1 | x | -26.0
6 | O=C1CSC(c2ccccc2)N1Nc1nc(N2CCOCC2)nc(N2CCOCC2)n1 (configuration not stated) | 2.5 | 2.0
7 | CN(C)c1ccc(CN2CCc3c([nH]c4ccccc34)C2)cc1 | -1.6 | x
8 | O=C(CP(=O)(O)CC(=O)c1ccccc1)c1ccccc1 | x | -8.0
9 | Cc1ccc(C(=O)Nc2nc3ccc(S(C)(=O)=O)cc3s2)cc1 | x | -13.0
10 | CN(C1CCCCC1)S(=O)(=O)c1ccc(NC(=O)C2COc3ccccc3O2)cc1 (configuration not stated) | x | -13.0
11 | N#Cc1ccc(COC(=O)c2cccnc2N2CCOCC2)cc1 | x | -11.0
12 | CC1(C)Oc2ccc(C(=O)N3CCOCC3)cc2NC1=O | -4.0 | 17.0
13 | NNC(=O)c1ccc(-c2ccccc2F)cc1 | -2.2 | x
14 | N/C(=N\OC(=O)c1ccsc1)c1ccc(Br)cc1 | -3.8 | 4.0
15 | Cc1ccc(C)c(N2C(=O)CS/C2=C(/C#N)S(=O)(=O)c2ccccc2)c1 | -0.6 | 0.0
16 | CCOC(=O)CN(C)Cc1ccc(Cl)c(Cl)c1 | 2.7 | 22.0
17 | O=C1CCc2cc(Cl)ccc21 | x | 2.0
18 | O=C1CCCN1CN(C(=O)c1ccccc1)c1ccccc1 | 0.0 | 16.0
19 | NC(=O)CSc1nnc(COc2cccc3ccccc23)o1 | 1.5 | 4.0
20 | CCCn1c(Cc2ccc(OC)c(OC)c2)nc2ccccc21 | -1.6 | 4.0
21 | Cc1cc(C)c(S(=O)(=O)c2cccc(C(F)(F)F)c2)c(=O)[nH]1 | -0.9 | x
22 | CC1=C(C)CC(C(=O)NCc2csc3ccccc23)C(C(=O)O)C1 (configuration not stated) | -1.6 | x
23 | CCN(Cc1ccncc1)C(=O)c1ccc(I)cc1 | 0.6 | -15.0
24 | O=C(CSc1nc2ccccc2c(=O)n1CC1CCCO1)Nc1cccc(C(F)(F)F)c1 (configuration not stated) | 3.0 | 4.0
25 | O=C(Nc1ccc2c(c1)CCC2)c1ccc(Cl)nc1 | x | -12.0

# | Molecule | MgrA DNA FP | Sa helicase inh
26 | CC1=C(C(=O)OCCc2ccccc2)C(c2coc3ccccc3c2=O)C2=C(CC(C)(C)CC2=O)N1 (configuration not stated) | -1.2 | x
27 | O=C(Nc1c2c(nn1-c1ccc(Oc3ccccc3)cc1)CSC2)c1ccco1 | 24.5 | 10.0
28 | COc1ccccc1NC(=S)NNC(=O)CC#N | 1.2 | x
29 | CCN(CC)C(=O)C(C(F)(F)F)C(F)(F)F | 0.7 | 6.0
30 | CCC(c1nnc(SCc2ccc(C(=O)OC)o2)n1Cc1ccccc1)N(C)C (configuration not stated) | x | 16.0
31 | COc1ccc2c(c1)CCc1c(C(=O)N3C(C)CCCC3C)noc1-2 (configuration not stated) | 0.6 | 13.0
32 | Cc1onc(-c2c(Cl)cccc2Cl)c1C(N)=O | -1.6 | x
33 | CC(C)N(Cc1ccccc1)C(=O)C1=CCN(S(=O)(=O)c2ccc(F)cc2)CC1 | -1.1 | 5.0
34 | Cc1cc(C)nc(SCCS(=O)Cc2ccc(Cl)cc2)n1 (configuration not stated) | 1.3 | -13.0
35 | O=C(CSc1nnc2sc3ccccc3n12)NCc1ccccc1 | x | 8.0
36 | Cc1cccc(NC(=O)CSc2nnc(CCC(=O)O)c(=O)n2N)c1 | 1.7 | 8.0
37 | O=C(Nc1ccc(N2CCN(c3ccc(C(F)(F)F)cn3)CC2)nc1)Nc1ccccc1OC(F)(F)F | x | -6.0
38 | N#Cc1ccccc1NC(=O)COC(=O)c1oc2ccccc2c1CSC1CCCCC1 | x | -7.0
39 | COc1ccccc1C(=O)NC1CCN(c2ncccn2)CC1 | x | 17.0
40 | O=C(CSc1ccccn1)Nc1ccc(Cl)c(Cl)c1 | -0.5 | x
41 | O=C(NCCc1ccccc1)c1ccoc1COc1ccccc1 | 1.6 | -26.0
42 | O=c1c2ccccc2[nH]c(=S)n1-c1cccc(S(=O)(=O)N2CCCC2)c1 | x | -10.0
43 | NCC(c1ccccc1)c1ccccc1 | x | 2.0
44 | CCOC(=O)Nc1nnc(Cc2cccc(Br)c2)s1 | -0.2 | 1.0
45 | COc1ccc(N=C(Nc2ccc(OC)cc2)SC)cc1 | -1.1 | 3.0
46 | CN(C)c1ccc(-c2nc3cc(NC(=O)c4ccc([N+](=O)[O-])cc4[N+](=O)[O-])ccc3o2)cc1 | 2.5 | x
47 | O=C(Cc1ccc(-c2ccccc2)cc1)NN1CCOCC1 | -0.2 | 7.0
48 | CN1CCN(Nc2oc(-c3ccc(F)cc3)nc2C#N)CC1 | x | 13.0
49 | Cc1c(C)c(C)c(C(=O)c2ccccc2C(=O)N2CCOCC2)c(C)c1C | -2.5 | x
50 | CCCc1c(O)nc(SCC(=O)N(CC)CC)[nH]c1=O | -4.7 | 1.0

# | Molecule | MgrA DNA FP | Sa helicase inh
51 | O=C(Nc1ccc(-c2ccc3nncn3n2)cc1)C1CCCC1 | x | 10.0
52 | CCNc1c(NC(=O)c2cccs2)c(=O)oc2ccccc12 | 2.7 | 3.0
53 | CN1/C(=C\C=C2C(=O)CC(C)(C)CC2=O)C(C)(C)c2ccccc21 | x | -169.0
54 | Nc1nccc(-c2cccc(C(F)(F)F)c2)n1 | -0.6 | x
55 | CC1=C(C(=O)Nc2ccccc2)C2(CCCCC2)C(C#N)=C(S)N1 | x | -21.0
56 | Cc1nn(-c2ccccc2)c2c1C(c1ccccc1)N1C=C(S(=O)(=O)N3CCCCC3)C=CC1=N2 (configuration not stated) | x | -6.0
57 | C(=C\c1ccccc1)/CNCc1ccco1 | -3.4 | 3.0
58 | CCCCCOc1ccc(C(=O)CCC(=O)O)cc1 | x | -18.0
59 | COC(=O)c1c(C)oc(C)c1S(=O)(=O)NCc1cccs1 | -1.5 | x
60 | O=C(O)CC(C(=O)O)n1c(O)c(/C=C2/C=Nc3ccccc32)sc1=S (configuration not stated) | -10.0 | -212.0
61 | O=c1oc2ccccc2c2nccnc12 | 0.4 | 5.0
62 | O=C(NC1CCN(Cc2ccc3ccccc3c2)CC1)c1ccccc1 | -1.4 | x
63 | O=C(O)CCCc1nc(-c2ccccc2)no1 | -2.2 | 0.0
64 | CCOc1ccc(NC(=O)C2COc3ccccc3O2)cc1 (configuration not stated) | -2.3 | x
65 | CC(C)(C)NS(=O)(=O)c1ccc2[nH]c3c(c2c1)CCCCC3 | x | 4.0
66 | CC(C)(C)OC(=O)N1CCC(CNC(=O)c2ccc(F)cc2F)CC1 | -1.1 | x
67 | CC(CCc1ccccc1)NC(=O)COc1ccc(-c2nnco2)cc1 (configuration not stated) | x | 0.0
68 | CCN(C(=O)COc1ncnc2sc(-c3ccccc3)cc12)C1CCS(=O)(=O)C1 (configuration not stated) | x | 1.0
69 | Cc1c(C#N)oc2ccccc12 | x | 6.0
70 | CCOc1cc(/C=C2\OC(=O)c3c2cc(C)[nH]c3=S)ccc1O | 2.5 | 8.0
71 | CC(C)(C)C(=O)CN1C(=O)C2(OCCO2)c2ccccc21 | -0.2 | x
72 | COc1c(I)cc(I)cc1/C=C1/SC(=S)N(CC(=O)O)C1=O | 1.2 | x
73 | CCOc1ccc(Cc2nnc(SCC(=O)c3ccc(Cl)cc3)o2)cc1 | x | 22.0
74 | O=C1CN(C(=O)Cc2ccc(S(=O)(=O)N3CCCCC3)cc2)c2ccccc2N1 | x | -2.0
75 | Cc1cc(N2CCCCC2)nc(N)n1 | 1.5 | x

Full records, quoted from the list. Values in the order: MgrA DNA FP, Sa helicase inh
`CC(C)(C)NS(=O)(=O)c1ccc2[nH]c3c(c2c1)CCCCC3` is listed as x, 4.0
`CN1/C(=C\C=C2C(=O)CC(C)(C)CC2=O)C(C)(C)c2ccccc21` is listed as x, -169.0
`CCN(C(=O)COc1ncnc2sc(-c3ccccc3)cc12)C1CCS(=O)(=O)C1` (configuration not stated) is listed as x, 1.0
`CC(CCc1ccccc1)NC(=O)COc1ccc(-c2nnco2)cc1` (configuration not stated) is listed as x, 0.0
`CC(C)(C)OC(=O)N1CCC(CNC(=O)c2ccc(F)cc2F)CC1` is listed as -1.1, x

Carrying on:
# | Molecule | MgrA DNA FP | Sa helicase inh
76 | CN(C)/C=C(\C#N)C(=O)C1CC1 | x | -26.0
77 | Cc1cccc(NC(=O)CC23CC4CC(CC(C4)C2)C3)n1 | -0.3 | 1.0
78 | Cc1cc2nc(-c3ccc4ccccc4c3)cc(C(F)(F)F)n2n1 | -2.3 | x
79 | CCC(C)(C)NS(=O)(=O)c1cc(-c2onc(C)c2C)ccc1C | x | 9.0
80 | C=CCNC(=O)c1cnn(C)c1-n1cccc1 | -1.8 | x
81 | O=C(CSc1ccnc(=O)[nH]1)NCc1ccccc1 | x | 5.0
82 | CCCN(CCC)C(=O)c1cc2c(=O)oc3ccccc3c2s1 | x | 11.0
83 | CN(C)CCNC(=O)c1ccc2c(c1)N(Cc1ccc(F)cc1)C(=O)c1ccccc1S2(=O)=O | 0.4 | -6.0
84 | COCCNC(=O)Cc1nc2ccccc2n1CC(=O)Nc1ccc(S(=O)(=O)N2CCCC2)cc1 | x | 14.0
85 | CSc1nc2c(c(=O)[nH]1)C(c1ccc(C(C)C)cc1)C1=C(CC(C)(C)CC1=O)N2 (configuration not stated) | x | 19.0
86 | CN1CCN(Cc2c(O)ccc3c(=O)c(-c4ccccc4)coc23)CC1 | x | 21.0
87 | CCn1c(=O)cc(N2CCC(C)CC2)[nH]c1=O | 0.2 | -9.0
88 | N#CCc1c(Cl)sc2ccc(Cl)cc12 | 0.2 | x
89 | O=C(COc1c(F)c(F)cc(F)c1F)c1ccc2c(c1)OCCO2 | x | -8.0
90 | COc1ccccc1NC(=O)C1CC(=O)N(Cc2ccc3c(c2)OCO3)C(=Nc2ccc(F)cc2)S1 (configuration not stated) | 0.9 | x
91 | CCOC(=O)c1[nH]c(C)c(C(C)=O)c1-c1ccccc1 | -0.9 | x
92 | O=C(CSCc1cccc2ccccc12)NNC(=S)NC1CCCCC1 | 0.9 | x
93 | CCOC(=O)c1ccc(NC(=O)Cn2c(C(=O)OC)cc3sccc32)cc1 | x | 21.0
94 | CCc1n[nH]c(=O)c2cc3sccc3n12 | x | 14.0
95 | O=C(c1c(F)cccc1F)N1CCCC(c2nc(-c3cccs3)no2)C1 (configuration not stated) | -1.1 | 6.0
96 | CCc1ccc(-c2csc(N)n2)cc1 | x | -5.0
97 | CCOc1cc(/C=C2\N=C(c3ccc(Cl)c([N+](=O)[O-])c3)OC2=O)ccc1OC(C)=O | -0.2 | x
98 | O=C(CSc1nnc(-c2cccs2)n1CC1CCCO1)c1ccc2[nH]c(=O)oc2c1 (configuration not stated) | x | -7.0
99 | Cc1nc2sc(C(c3cccs3)N3CC(C)CC(C)C3)c(O)n2n1 (configuration not stated) | x | -11.0
100 | O=C1CC(c2ccccc2C(F)(F)F)C2=C(CC(c3cccs3)CC2=O)N1 (configuration not stated) | 3.0 | 7.0

# | Molecule | MgrA DNA FP | Sa helicase inh
101 | Cc1ccc(C)c(SCC(=O)O)c1 | x | 14.0
102 | CCOC(=O)Cc1nc(OCC(=O)c2ccc(F)cc2)cs1 | -10.1 | -53.0
103 | CC(CN(C)C)CN1c2ccccc2CCc2ccccc21 (configuration not stated) | 2.6&-0.3 | x
104 | CCN(C(=S)NC(=O)c1ccc(Br)o1)c1ccccc1 | 4.8 | 26.0
105 | COc1ccccc1Nc1nc2ccccc2c2nncn12 | x | -31.0
106 | CCNC(=O)COc1ccc(N(C)S(=O)(=O)c2ccc(Cl)cc2)cc1 | x | 6.0
107 | CCC(CC)C(=O)N1CCN(Cc2ccccc2)CC1 | 1.0 | -7.0
108 | COc1ccc(Cl)cc1NC=C1C(=O)OC2(CCCCC2)OC1=O | -0.5 | 0.0
109 | N#Cc1cc2cc3c(cc2nc1SCc1cccnc1)OCCO3 | -1.0 | 5.0
110 | Cc1ccsc1C=Nc1ccc(O)cc1 | 2.8 | 15.0
111 | COc1cccc(Nc2ncc(C#N)c(N)n2)c1 | -0.4 | x
112 | Cc1ccc(C)c(SCC(=O)OCC(=O)N2CCCc3ccccc32)c1 | -2.1 | -5.0
113 | CCOc1cc(-n2cnnn2)c(OCC)cc1NC(=O)c1cn(-c2ccc(F)cc2)nn1 | x | -10.0
114 | O=C1c2ccccc2C(=O)N1SSN1C(=O)c2ccccc2C1=O | x | 10.0
115 | CC(C)(CNC(=O)c1cc2ccccc2cc1O)N1CCOCC1 | x | -6.0
116 | O=c1c2ccccc2cnn1-c1nc2ccccc2[nH]1 | x | -10.0
117 | O=C(O)C1C2C=CC(C2)C1C(=O)N1CCN(C(c2ccccc2)c2ccccc2)CC1 (configuration not stated) | 8.0 | 1.0
118 | CCCNc1nc2ccccc2n2c(C)nnc12 | 0.9 | 9.0
119 | NC(=O)N=Nc1c(O)[nH]c2ccccc12 | x | -8.0
120 | O=C(c1cc(-c2ccccc2)n[nH]1)N1CC=C(c2ccccc2)CC1 | x | -5.0
121 | c1ccc(Nc2nnc(-c3ccc(-c4nc5ccccc5s4)s3)o2)cc1 | x | -8.0
122 | O=C(C1CCCCC1)N1CCN(c2cccc3[nH]ccc23)CC1 | -0.3 | x
123 | C#CCn1c(=NC(=O)c2ccc(S(=O)(=O)N3CCCC3)cc2)sc2cc3c(cc21)OCO3 | x | 11.0
124 | COc1ccc(CNC(=O)c2cnn3c2NC(c2ccc(C)cc2)CC3C(F)F)cc1OC (configuration not stated) | -0.8 | -1.0
125 | C#CCOC(=O)Nc1cnccc1C(F)(F)F | x | -20.0
